# miR-21 FLuc: miR-21 reporter, rising signal; 340,000 tested, under 10 active; HeLa miR-21 FLuc reporter, luciferase, 48 h; AID 2288; Potency, µM (series often up to 38.3 µM), for inactives: at the highest dose reporter change, positive = more light; active = well fitted rising curve with a large enough effect; inconclusive = small, poorly fitted or top-dose-only effect; inactive = no such curve, though single readings can be large or run the other way;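 also: % of control where 0% means no effect; miR-21 action dims this reporter so a rising signal means less miR-21 action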
#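 Luminescence from a firefly luciferase reporter carrying a miR-21 binding site downstream, stably expressed under a CMV promoter in HeLa cells that make miR-21 endogenously, reports miRNA modulation after 48 h compound exposure up to approximately 40uM final.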
# Rango complex inh: Rango-importin beta binding inhibition; AID 540263; 340,000 compounds, 0.031% hits; Potency, µM (top dose mostly 92.2 µM), for the others: at the highest dose inhibition of complex formation; Rango CFP/YFP FRET sensor + importin beta, 45 min; active = rising FRET ratio curve, often small or poorly fitted; inconclusive = mostly compound fluorescence or quenching in the first reads; inactive = flat curves in all reads;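 also: potency is read from the fitted curve at half-maximal effect; 0% = DMSO wells and 100% = buffer wells lacking importin beta; nearly all actives have a fitted effect of over 15% in size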
#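 FRET biosensor Rango (snurportin 1 IBB between N-terminal EYFP and C-terminal Cerulean), 50 nM in PBS/1 mM DTT/0.02% Tween-20/0.1% BSA, preincubated 5 min RT with compound; 0.125 microM importin beta added, 45 min RT, CFP/YFP FRET ratio read.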
# GLA inh pH 4.5: blocks human alpha-galactosidase A at pH 4.5. P06280. activity change, negative = inhibition, % at 105 µM. AID 1467. purified enzyme, 4-MU-alpha-Gal fluorescence, pH 4.5. 230,000 tested, under 10 active; inconclusive = small, poorly fitted or top-dose-only inhibition, or a rising curve; inactive = flat fitted curve, though single readings scatter; no compound was filed as active;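 also: 0% = full activity with enzyme and -100% = basal without enzyme; dose as in the result columns while the protocol names 77 µM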
# Target sequence (P06280 whole entry, looked up): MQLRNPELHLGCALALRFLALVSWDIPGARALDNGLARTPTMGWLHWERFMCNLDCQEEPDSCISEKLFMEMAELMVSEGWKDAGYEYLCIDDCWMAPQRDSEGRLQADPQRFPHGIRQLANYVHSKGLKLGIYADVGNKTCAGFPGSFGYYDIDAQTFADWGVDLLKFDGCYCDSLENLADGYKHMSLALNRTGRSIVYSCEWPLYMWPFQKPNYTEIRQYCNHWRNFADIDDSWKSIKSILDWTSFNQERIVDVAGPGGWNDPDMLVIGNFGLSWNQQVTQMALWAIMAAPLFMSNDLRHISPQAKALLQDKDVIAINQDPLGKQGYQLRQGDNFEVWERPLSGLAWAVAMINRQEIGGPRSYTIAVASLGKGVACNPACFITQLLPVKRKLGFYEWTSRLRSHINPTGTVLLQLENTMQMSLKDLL
# Rango release inh: inhibition of RanGTP-driven Rango-importin beta dissociation; Biochemical FRET Rango-importin beta, RanGTP-induced dissociation; 340,000 compounds, 0.071% hits; O95149+P62826; Potency, µM (doses to about 46.1 µM), inactives show top-dose activity change, negative = inhibition; active means falling FRET ratio curve, often poorly fitted, with flat reads before Ran was added; inconclusive means other falling curves, or compound fluorescence or quenching; inactive means flat or rising ratio curve;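 also: potency is read from the fitted curve at half-maximal effect; % of control where 0% means no effect; nearly all actives have a fitted effect of over 45% in size; -100% = wells without RanGTP and RCC1; the record marks most hits as doubtful in a second field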
#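 Recombinant Rango FRET biosensor (EYFP–snurportin 1 IBB–cerulean CFP10) at 0.1 uM premixed with 0.25 uM importin beta in PBS, 1 mM DTT, 0.02% Tween-20, 0.1% BSA. Compound added 5 min; RanGTP-RCC1 (0.6 uM Ran, 2 mM GTP, 0.2 uM RCC1) then triggers release, read at 45 min.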
# Starred values were filed as active, the others as inactive; ? = inconclusive; . = not tested or not shown; & = joins results of further samples. The list is partial. The share of hits here may be higher or lower than overall.
1	Cc1ccc(C)c(NC(=O)C2CC3c4ccccc4C2c2ccccc23)c1 (configuration not stated)
2	Clc1ccc2scc(CN3CCCCC3)c2c1
3	Cc1c(-c2cccc(Cl)c2)nc2ccccc2c1C(=O)OCC(=O)Nc1ccc2c(c1)OCO2
4	CCC(C)(C)NC(=O)CN(C(=O)CCC(=O)Nc1nccs1)c1cccc(C)c1C
5	COc1ccc2c(Cl)c(C(=O)NCC3CCCO3)sc2c1Cl (configuration not stated)
6	O=S(=O)(Nc1ccc(Cl)cn1)c1ccc2c(c1)OCCO2
7	COC(=O)c1ccc(N2NC(=O)/C(=C/c3cc(OC)c(OC)c(OC)c3)C2=O)cc1
8	CCOC(=O)C1C(=O)CC(C)(O)C(C(=O)OCC)C1c1ccccc1OC (configuration not stated)
9	O=[N+]([O-])c1cc(C(F)(F)F)ccc1N1CCN(S(=O)(=O)c2ccc3ccccc3c2)CC1
10	Cc1ccc(C)c2sc(NC(=O)c3nc4ccccc4s3)nc12
Compound	1	2	3	4	5	6	7	8	9	10
miR-21 FLuc	-4.4%	-16.7%	24.1%	-2.0%	-37.1%	.	-3.7%	-4.7%	15.3%	-1.9%
Rango complex inh	-4.4%	3.6%	0.2%	-1.4%	.	-1.1%	0.3%	1.0%	-0.1%	0.5%
GLA inh pH 4.5	4.3	-1.0	-9.7	.	7.0	.	.	-8.7	-3.0	-4.1
Rango release inh	1.7%	-16.8%	2.9%	-3.9%	.	21.0%	1.1%	-3.9%	20.2%	-7.2%

# 3 records picked at random from those above, as already listed:
6	O=S(=O)(Nc1ccc(Cl)cn1)c1ccc2c(c1)OCCO2
3	Cc1c(-c2cccc(Cl)c2)nc2ccccc2c1C(=O)OCC(=O)Nc1ccc2c(c1)OCO2
1	Cc1ccc(C)c(NC(=O)C2CC3c4ccccc4C2c2ccccc23)c1 (configuration not stated)
Compound	6	3	1
miR-21 FLuc	.	24.1%	-4.4%
Rango complex inh	-1.1%	0.2%	-4.4%
GLA inh pH 4.5	.	-9.7	4.3
Rango release inh	21.0%	2.9%	1.7%

# (cont.)
11	Cc1c(Cl)ccc2c(C(=O)O)cc(-c3ccccc3)nc12
12	O=C(CN1CCOCC1)NNC(=O)c1ccc([N+](=O)[O-])cc1
13	O=C1C(=O)N(CCN2CCOCC2)C(c2ccccn2)/C1=C(/O)c1ccc(Cl)cc1 (configuration not stated)
14	O=C(Nc1cc([N+](=O)[O-])ccc1C(=O)NCCN1CCOCC1)c1ccccc1
15	CCc1ccc(NC(=O)Nc2cc(C(=O)NCC3CCCO3)ccc2N2CC3CC(C2)c2cccc(=O)n2C3)cc1 (configuration not stated)
16	Cc1noc(C)c1NC(=O)N(C)C[C@H]1Oc2ccc(NC(=O)NC3CCCCC3)cc2C(=O)N([C@H](C)CO)C[C@@H]1C
17	COc1ccc(NC2CCCN(C(=O)C3(C)CCCCC3)C2)cc1OC (configuration not stated)
18	Cc1ccc(S(=O)(=O)N(CC(=O)N/N=C/c2ccccc2C(=O)O)c2cc(Cl)cc(Cl)c2)cc1
19	Cc1cc(N2CCCCC2)nc(SCC(=O)c2ccccc2)n1
20	Cc1cc(C)c2nc(N3CCC(C(=O)NCc4cccnc4)CC3)sc2c1
Compound	11	12	13	14	15	16	17	18	19	20
miR-21 FLuc	-0.6%	-0.5%	-11.1%	2.2%	-7.8%	.	1.0%	-2.0%	-47.0%	-13.9%
Rango complex inh	4.6%	-0.1%	?	-2.2%	-5.1%	-2.3%	0.2%	2.7%	0.2%	-3.1%
GLA inh pH 4.5	-4.3	.	3.4	.	.	.	.	?	-1.8	-15.4
Rango release inh	14.1%	1.0%	?	-7.0%	7.9%	-13.7%	-6.7%	9.3%	8.1%	2.4%

21	CCOC(=O)C(CCSC)Nc1nc(Cl)nc(Nc2ccc(Cl)cc2)n1 (configuration not stated)
22	Cc1nonc1OCCNc1ccc([N+](=O)[O-])cc1[N+](=O)[O-]
23	CN(C)S(=O)(=O)c1cccc(NC(=O)COC(=O)CCC(=O)c2cccs2)c1
24	CCCN1CC(O)=C(C#N)C1=O
25	Cc1ccc(Cl)cc1N1CCN(S(=O)(=O)c2c(C(=O)N3CCOCC3)c(C)n(C)c2C)CC1
26	C=CC[C@@H](Cc1ccc(F)cc1)C(=O)OC[C@H]1CCCN1C(=O)[C@@H](CC=C)CC(=O)N(CCO)Cc1ccccc1
27	COc1cccc(CN(C)CC(=O)Nc2cccc3ccccc23)c1
28	CCOc1ccc(NC(=O)Nc2cccn(Cc3ccccc3)c2=O)cc1
29	COCc1nnc(NC(C)=O)s1
30	C(=N\Nc1nc2ccccc2[nH]1)/c1ccc2c(c1)OCCO2
Compound	21	22	23	24	25	26	27	28	29	30
miR-21 FLuc	.	-14.9%	0.9%	-1.0%	5.7%	.	-5.7%	1.0%	-0.4%	19.9%
Rango complex inh	6.4%	0.1%	2.4%	-5.5%	0.5%	-1.5%	3.2%	-2.8%	-0.3%	0.0%
GLA inh pH 4.5	.	-12.2	1.2	5.1	.	.	-8.8	4.0	5.7	-9.9
Rango release inh	7.1%	-5.7%	-5.1%	-1.3%	-1.3%	-1.3%	1.4%	3.4%	1.5%	1.1%

# Record cards, as listed above. Order of values: miR-21 FLuc	Rango complex inh	GLA inh pH 4.5	Rango release inh
# O=C(Nc1cc([N+](=O)[O-])ccc1C(=O)NCCN1CCOCC1)c1ccccc1 in the list: 2.2%	-2.2%	.	-7.0%
# Cc1ccc(S(=O)(=O)N(CC(=O)N/N=C/c2ccccc2C(=O)O)c2cc(Cl)cc(Cl)c2)cc1 in the list: -2.0%	2.7%	?	9.3%

# Ordered by count of non-hydrogen atoms (ascending): some entries from above
22	Cc1nonc1OCCNc1ccc([N+](=O)[O-])cc1[N+](=O)[O-]
27	COc1cccc(CN(C)CC(=O)Nc2cccc3ccccc23)c1
21	CCOC(=O)C(CCSC)Nc1nc(Cl)nc(Nc2ccc(Cl)cc2)n1 (configuration not stated)
Compound	22	27	21
miR-21 FLuc	-14.9%	-5.7%	.
Rango complex inh	0.1%	3.2%	6.4%
GLA inh pH 4.5	-12.2	-8.8	.
Rango release inh	-5.7%	1.4%	7.1%

# (cont.)
31	O=C(Nc1ccccc1F)c1ccncc1
32	O=C(O)c1ccc(/C=N/NC(=O)c2ccc(Br)cc2)cc1
33	Cc1ccc(-n2c(=O)c3sccc3n(Cc3cc(=O)n4ccccc4n3)c2=O)cc1
34	C[C@H](NC(=O)c1nc[nH]c1C(=O)NC1CCNCC1)C(=O)OC(C)(C)C
35	COc1ccccc1CCNC(=O)CNC(=O)c1ccc2ccccc2c1
36	CC(C)C1=NN2C(=N)CC(=O)N=C2S1
37	C=CCn1c(SCC(=O)c2cc(C)n(C(C)COC)c2C)nc2sc(C)c(C)c2c1=O (configuration not stated)
38	Cn1nnnc1SCC(=O)Nc1ccccc1Br
39	Cc1sc2nc(SCC(=O)NCCO)n(-c3ccccc3)c(=O)c2c1C
40	COc1ccc(C(=O)COC(=O)CCn2nnc(-c3cccc(O)c3OC)n2)cc1
Compound	31	32	33	34	35	36	37	38	39	40
miR-21 FLuc	-1.1%	-7.3%	-14.3%&-7.8%	.	-5.9%	-4.0%	-3.3%	-0.1%	-6.3%	0.7%
Rango complex inh	0.4%	-2.3%	0.3%	0.6%	-0.9%	?	-1.9%	13.7%	0.0%	0.7%
GLA inh pH 4.5	-0.1	-5.8	7.7	.	.	3.5	-2.3	.	0.6	8.0
Rango release inh	-0.1%	4.9%	3.5%	-11.1%	-12.4%	-22.7%	0.7%	0.6%	0.6%	0.6%

41	Cc1cccc(C)c1NC(=O)CN(C)C(=O)CC1CC2CCC1C2 (configuration not stated)
42	CC(O)COc1ccc(/C(=N/O)c2ccccc2)cc1 (configuration not stated)
43	CC(=O)Oc1c(-c2ccc(Br)o2)oc2ccccc2c1=O
44	CN1C(=O)/C(=C/c2ccccc2OCc2cccc(F)c2)NC1=S
45	CCOCCCNC(=O)CN1C(=O)COc2ccc(S(=O)(=O)N3CCCCCC3)cc21
46	CSC1=NCCN1C(=O)Cc1ccc(Cl)cc1
47	CC1(C)Cc2c(C#N)c(SCC(=O)c3ccccc3)nc(N3CCOCC3)c2CO1
48	Cc1ccc(S(=O)(=O)NN2C(=O)c3ccccc3NC2c2ccccc2O)cc1 (configuration not stated)
49	NC(N)=NN=C1CCC(c2ccccc2)CC1 (configuration not stated)
50	CC(C)(C)OC(=O)CNC(=O)c1[nH]cnc1C(=O)Nc1ccc(Cl)cc1
Compound	41	42	43	44	45	46	47	48	49	50
miR-21 FLuc	.	-31.2%	-4.4%	2.4%	-4.6%&6.7%	-3.9%	1.1%	0.0%	-0.6%	9.7%
Rango complex inh	-2.8%	-1.6%	?	?	-3.6%	5.0%	?	0.1%	7.4%	0.1%
GLA inh pH 4.5	.	1.1	.	-10.9	.	-11.9	-2.1	0.1	.	0.2
Rango release inh	0.9%	-16.6%	?	?	-1.9%	-26.1%	-15.8%	-13.6%	-4.6%	-0.5%

51	Cc1c(F)cccc1NC(=O)CCCCCC1NC(=O)NC1C (configuration not stated)
52	CCCc1c(C(=O)Nc2ccc(OC)cc2)cnn1-c1ccccc1
53	C/C(=N/NC(=O)c1ccc2c(c1)OCO2)c1cccc([N+](=O)[O-])c1
54	CSc1nc(N)nc2c1ncn2CC(=O)NCC1CCCO1 (configuration not stated)
55	O=C(NNC(=O)c1cc2cc3ccccc3nc2s1)c1cccc(Cl)c1
56	CCS(=O)(=O)c1ccc2c(c1)N(S(C)(=O)=O)CC(C(=O)NCCOC)O2 (configuration not stated)
57	COc1ccc(NC(=O)NC2(C)CCS(=O)(=O)C2)cc1 (configuration not stated)
58	Cc1cc(C)c(S(=O)(=O)c2cccc(C)c2C)c(=O)[nH]1
59	Nc1ccc(C(=O)NC23CC4CC(CC(C4)C2)C3)cc1
60	Cc1ccc(C(=O)OCc2cn(-c3ccccc3)nn2)cc1
Compound	51	52	53	54	55	56	57	58	59	60
miR-21 FLuc	-1.6%	-7.7%	-39.2%	.	-27.9%	-0.5%	-1.8%	0.0%	-8.0%	3.8%
Rango complex inh	4.2%	0.1%	-3.3%	-3.3%	0.2%	0.8%	-0.7%	-1.6%	0.2%	-0.8%
GLA inh pH 4.5	3.2	-7.0	.	.	-2.6	-13.3	.	.	.	3.5
Rango release inh	11.3%	3.5%	1.4%	-8.7%	-13.0%	-9.5%	21.2%	7.9%	-29.7%	-5.5%

61	Cc1ccc(C(=O)NC(N(C)C)C(Cl)(Cl)Cl)cc1 (configuration not stated)
62	COC(=O)c1sccc1-n1cccc1C(=O)C(=O)Nc1ccc(F)cc1
63	CC(=O)C[C@H](O)CC(=O)[C@H]1OC(=O)CCCCCc2ccccc21
64	NS(=O)(=O)c1ccc(NC(=O)c2ccc3nccnc3c2)cc1
65	CN(c1ccc(OCC(=O)OCC(=O)Nc2ccccc2F)cc1)S(=O)(=O)c1cccs1
66	O=C(CSc1nc2ccc(N3CCOCC3)cc2c(=O)n1CCc1ccccc1)NCC1CCCO1 (configuration not stated)
67	COC1=C/C(=C/c2c(N)n3nc(CC(=O)N4CCOCC4)sc3nc2=O)C=CC1=O
68	NCCOc1ccccc1Cc1ccccc1
69	Cc1c(C(=O)NC(=S)NCC(C)C)oc2ccccc12
70	COc1ccc(C(C)=O)cc1CSc1nc2ccccc2c(=O)n1-c1cccc(C)c1
Compound	61	62	63	64	65	66	67	68	69	70
miR-21 FLuc	-5.7%	0.6%	.	1.7%	-1.5%	-1.4%	2.8%	-1.8%	-23.9%	-9.9%
Rango complex inh	-0.3%	-4.6%	-4.8%	-2.3%	-4.9%	?	?	2.3%	-2.1%	-0.9%
GLA inh pH 4.5	4.3	-1.0	.	-1.8	-0.1	-2.3	.	-3.0	-5.1	-0.5
Rango release inh	3.3%	11.1%	?	-5.1%	34.6%	-1.0%	?	-3.9%	-7.0%	-20.2%

# Screens (PubChem)
